Source: PubChem BioAssay (several laboratories)
CSC inhib: blocks cancer stem cells; inhibition, % at 7.5 µM; cancer stem cell-like cells viability, luminescence; 300,000 compounds, 1.1% hits;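 active = mean at 75% or more and at least half the replicates too; inconclusive = mean and replicates disagree; tested in HMLE shEcad cells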;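 also: 0% = median of negative and 100% = median of positive control wells; the first replicate is given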
UUG fidelity: yeast start codon fidelity modulation; activity score, % at 18.7 µM; S. cerevisiae UUG-firefly luciferase reporter, luminescence/redox ratio; 350,000 compounds, 0.13% hits; AID 602363;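 active = replicate mean at a twofold rise or more, about +100% in these data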;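 also: firefly luciferase made from a UUG start codon reports start codon fidelity; reporter light over untreated wells divided by growth signal over untreated wells; some hits fall short of that in this replicate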
HIV Env fusion: inhibitors of HIV Env-mediated cell fusion | HeLa-JRFL Env/CEM21 cell fusion, luciferase | inhibition, % at 12.3 µM | 360,000 compounds, 1.1% hits | AID 651610;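 active = mean replicate inhibition score of at least 50 and every replicate individually at or above 50; inconclusive = only one of the two criteria met; inactive = mean below 50 and not all replicates reaching 50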;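 also: 0% = plate neutral controls and 100% = maraviroc near 300 nM; one replicate is shown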
PABP FP inh: blocks human PABP binding to poly(A) RNA. P11940. fluorescence polarization. inhibition, % at 35 µM. 290,000 compounds, 1% hits. AID 2014;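 active = 50% or more with normal probe brightness, or confirmed in later tests; inconclusive = above 50% with abnormal brightness, or retests that disagree; inactive = below 50% or failed in later tests; about a fifth of its hits are not listed in these tables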;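 also: calls also rest on retests at 20 µM and on dose response follow-up; controls were probe without protein and protein plus probe with vehicle; some compounds called inactive have numbers as strong as hits; many hits fall short of the cut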
Target sequence (P11940 whole entry, looked up): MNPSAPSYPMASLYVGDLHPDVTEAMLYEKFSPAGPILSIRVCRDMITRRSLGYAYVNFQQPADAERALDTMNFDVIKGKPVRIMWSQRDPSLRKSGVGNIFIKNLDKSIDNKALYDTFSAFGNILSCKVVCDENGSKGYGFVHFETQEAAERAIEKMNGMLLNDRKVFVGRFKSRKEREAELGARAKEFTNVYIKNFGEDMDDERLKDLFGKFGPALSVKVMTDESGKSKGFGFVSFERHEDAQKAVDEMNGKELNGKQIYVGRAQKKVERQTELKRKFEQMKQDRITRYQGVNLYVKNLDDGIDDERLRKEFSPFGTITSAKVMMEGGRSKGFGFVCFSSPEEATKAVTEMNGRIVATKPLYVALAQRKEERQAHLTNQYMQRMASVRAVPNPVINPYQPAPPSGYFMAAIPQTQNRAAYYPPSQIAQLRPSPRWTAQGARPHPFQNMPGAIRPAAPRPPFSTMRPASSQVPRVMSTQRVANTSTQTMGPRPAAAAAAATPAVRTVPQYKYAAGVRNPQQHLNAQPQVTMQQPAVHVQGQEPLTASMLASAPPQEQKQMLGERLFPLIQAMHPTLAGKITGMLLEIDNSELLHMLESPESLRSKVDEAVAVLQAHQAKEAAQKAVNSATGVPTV
Rce1 inh: yeast Ras-converting enzyme inhibition; Q03530; yeast membranes, quenched prenylated peptide cleavage fluorescence; calls only; 290,000 compounds, 0.27% hits;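 active = fall in fluorescence gain of 50% or more versus controls, with final raw signal at or below 3038400; inconclusive = same 50% fall but final raw signal above 3038400; inactive = fall in fluorescence gain under 50%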;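 also: plate controls were neutral control wells for no effect and wells lacking membranes for full effect; tested at 10 µM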
eIF4H inh: inhibitors of RNA binding by human eIF4H; eIF4H fluorescence polarization binding assay; inhibition, % at 35 µM; 290,000 compounds, 0.94% hits; AID 2012;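 active = 50% or more with normal probe brightness, or confirmed in later tests; inconclusive = above 50% with abnormal brightness, or retests that disagree; inactive = below 50% or failed in later tests; about a fifth of its hits are not listed in these tables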;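 also: calls also rest on retests at 20 µM and on dose response follow-up; 0% = protein and probe with vehicle and 100% = probe without protein; strong numbers were not always called active; many hits fall short of the cut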
MT1-MMP act inh: blocks activation of human MT1-MMP | GFP/RFP ratio change, % at 20 µM | 360,000 compounds, 0.061% hits | P50281 | HT1080 RFP-PRO-GFP cells, GFP/RFP ratio fluorescence, overnight; percent of plate control window, DMSO zero;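 active = GFP/RFP ratio change of at least 30% with cell ATP level not reduced by more than half and red fluorescence within 50% of control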; also: strong numbers were not always called active
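Test system: HT1080 cells expressing an RFP-PRO-GFP fluorescent reporter construct / Compound dosing: single-point 20 µM compound, 1% DMSO / Schedule: cells overnight before dosing, compound overnight, 37 °C, 5% CO2 / Evaluation: GFP/RFP fluorescence ratio / Control set: DMSO and RFP-L50D-GFP cell wells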
eIF4H inh retest: second read-out of eIF4H inh, no call of its own (marks repeat the call); inhibition, %; compound at 20 µM; confirmation average;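 mean of two retest wells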
PABP FP inh retest: also measured in PABP FP inh; calls as there; inhibition, %; compound at 20 µM; confirmation repeats;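 mean of two retest wells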
MT1-MMP act inh RFP: second read-out of MT1-MMP act inh, no call of its own (marks repeat the call); RFP signal change, %; measured here: RFP expression control read;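 0 = vehicle wells; hits needed this value within 50% of zero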
Active calls of the source: *; i = inactive; ? = inconclusive; nt = not tested or not shown; & = joins results of further samples; [ ] = remark or other dose. These rows are one share of the data, so the mix of outcomes need not match the whole.

SMILES	CSC inhib	UUG fidelity	HIV Env fusion	PABP FP inh	Rce1 inh	eIF4H inh	MT1-MMP act inh	MT1-MMP act inh RFP	others
Nc1ncnc2c1ncn2[C@@H]1O[C@H](CNS(=O)(=O)CCCCl)[C@@H](O)[C@H]1O	-16	-17	-28	nt	nt	nt	0	6
COc1ccc(C(=O)O)c(O)c1	-5	-18	nt	nt	i	nt	2	5
O=C(Nc1ccccc1N1CCOCC1)c1ccc2ccccc2c1	-10	-5	-20	-6	i	-4	-3	-2
COc1ccc(NC(=O)C2CCCN(c3c4c(nc5ncnn35)CCC4)C2)cc1 (configuration not stated)	-9	-21	25	-9	i	8	4	-9
COc1ccc(C(C(=O)NCc2ccccc2)N(C(=O)c2snc(C(N)=O)c2N)c2ccccc2OC)cc1OC (configuration not stated)	-13	-4	4	-7	i	9	-3	-1
O=C(Cc1ccc(NC(=O)C2CCN(C(=O)C3CCCC3)CC2)cc1)Nc1ccc(C(=O)N2CCOCC2)cc1	nt	20	-12	nt	nt	nt	2	4
CC[C@]12C(=O)N(C)C[C@H]([C@@H]3C(=O)N(Cc4ccccc4)C(=O)[C@@H]31)N2C(=O)c1ccc(F)cc1	nt	-11	-1	nt	nt	nt	-1	3
CCN(CC(=O)Nc1cc(Cl)ccc1C)C(=O)CCc1nc2ccccc2c(=O)[nH]1	-9	-18	3	nt	nt	nt	2	1
Cc1ccccc1C(=O)c1cccn1CC(=O)NCc1ccc(Cl)cc1	-13	-19	-17	-8	i	-7	-2	-4
CCc1cc(=O)oc2cc(C)cc(OC(C)C(=O)NCc3ccccn3)c12 (configuration not stated)	-6	-10	6	-6	i	-17	-5	1
COc1cccc(-c2nn(-c3ccccc3)cc2CO)c1	1	-5	nt	-12	i	0	2	-4
CCC1C(=O)N=C(SCC(=O)NC2CCCCC2)NC1=O (configuration not stated)	-8	nt	3	-2	i	-9	-4	-2
CC(=O)NCCC(=O)Nc1cc(S(=O)(=O)N2CCCCC2)ccc1Oc1ccccc1	-3	-16	20	6	i	-6	-1	-3
Cc1c(Br)c(C(F)(F)F)nn1CC(=O)NCc1ccccc1	nt	-2	-11	6	i	-9	-1	0
CCOc1ccccc1NC(=O)C(CC(C)C)NC(=O)C1CCCCC1 (configuration not stated)	-6	16	7	-8	i	3	-2	-3
CCC1CCc2c(sc(NC(=O)c3cccnc3)c2C(N)=O)C1 (configuration not stated)	7	1	-4	-9	i	1	3	5
COc1ccc(/C=C2/SC(=O)N(CC(O)Cn3c4ccccc4c4ccccc43)C2=O)cc1 (configuration not stated)	18	nt	-19	0	i	-16	28	-12
CC1CCCCN1S(=O)(=O)c1ccc(NC(=O)c2cccc(-n3cnnn3)c2)cc1 (configuration not stated)	nt	-2	?	-9	nt	-3	4	-8
COc1cc2oc(=O)cc(-c3ccc(-c4ccc(C#N)cc4)cc3)c2c(OC)c1OC	nt	0	33	nt	nt	nt	5	-1
COc1ccccc1C(c1nnnn1C(C)C)N1CCN(C(=O)c2ccco2)CC1 (configuration not stated)	-7	-1	-8	1	i	0	-4	2
Cc1cc2c(N3CCCCC3C)ncnc2s1 (configuration not stated)	-10	-11	nt	-10	i	1	-11	-18
O=C(NCc1ccco1)c1ccc([N+](=O)[O-])cc1Cl	-8	8	8	-1	i	-6	-1	-1
CCC1(C(=O)c2ccc(Cl)cc2)C2c3ccccc3OC(=O)C21C(=O)Nc1ccccc1 (configuration not stated)	0	nt	13	-3	i	0	-1	1
CCCc1cc(=O)[nH]c(SCC(=O)Nc2ccc(OCc3ccccc3)cc2)n1	4	-15	nt	nt	nt	nt	1	0
Cc1cc(=O)n2nc(N3CCCC(C(=O)NCc4ccccc4Br)C3)sc2n1 (configuration not stated)	-5	-5	5	3	i	-8	-1	-4
CC(=O)c1ccc(Nc2nc(C(N)c3ccccc3)cs2)cc1 (configuration not stated)	nt	-15	-31	nt	nt	nt	-3	-1
O=C(C[n+]1ccccc1)N/N=C/c1ccc(O)cc1	-1	11	3	-10	i	-2	-4	2
O=C(Cc1cccnc1)N[C@@H]1CC[C@H](CCn2cc(Cc3ccccc3)nn2)O[C@@H]1CO	nt	-14	-13[16.7 µM]	nt	nt	nt	2	5
O=C(c1ccc(Br)s1)N1CCCC1	-7	-20	-65	2	i	-1	-9	-6
COc1cccc(NC(=O)C2(S(=O)(=O)c3ccc(Cl)cc3)CC2)c1	16	nt	9	10	i	2	1	-1
O=C(NN1C(=O)C2C3C=CC(C4CC34)C2C1=O)c1ccc(Cl)cc1 (configuration not stated)	-4	-11	nt	-4	i	-1	1	-1
O=C(Nc1ccc2c(c1)OCCO2)C1CCN(c2nnnn2-c2ccccc2)CC1	-2	0	8	-11	nt	-3	-2	2
Cc1cc(/C=N/NC(=O)c2cccs2)c(C)n1-c1cnccn1	-11	-10	-13	-3	i	-12	2	5
N#CC1(NC(=O)COc2ccc3ccc(=O)oc3c2)CCCCC1	2	nt	nt	nt	i	nt	-1	4
C/C(=C/c1ccccc1)C(=O)N1CC(C)OC(C)C1 (configuration not stated)	-2	nt	-3	-5	i	-8	-1	4
O=C(Cn1cc(C(=S)N2CCOCC2)c2ccccc21)N1CCOCC1	-6	-31	nt	-13	nt	-14	1	-1
S=C(Nc1ccccc1Cl)N(CCCN1CCOCC1)Cc1ccccn1	-1	-10	-7	7	i	-3	0	-3
C[C@@H]1Cc2c(O)c(O)cc(O)c2C(=O)O1	-16	-15	nt	29	i	55	-2	-4	eIF4H inh retest=31;PABP FP inh retest=18
CCOC(=O)C1=C(c2ccccc2)NC(=O)NC1c1cc(Br)c(O)c(OC)c1 (configuration not stated)	-3	-4	0	7	i	-2	-4	-4
COc1ccccc1C(=O)NCC(=O)N/N=C/c1ccc([N+](=O)[O-])cc1	10	nt	-5	-13	i	4	3	0
N#Cc1ccc(/C=C\c2nccc3c2[nH]c2ccccc23)cc1	46	nt	-1	16	i	-7	-24	-14
COc1ccc(CN(C)C(=O)Cn2ccsc2=N)cc1OC	-9	4	6	-5	i	-8	-2	-1
CC(=O)c1c(C)[n+]([O-])c2ccc3c(non3O)c12	-11	nt	15	-4	i	2	2	3
COc1cc(NC(=O)c2cccs2)c(C(=O)OCC(=O)c2cc(C)n(-c3ccc(F)cc3)c2C)cc1OC	44	-19	nt	-6	i	-5	0	3
C=CCCCCc1nc2ccccc2c(=O)n1N	-7	nt	5	5	i	-1	1	0

An excerpt of the results above, for reference:
SMILES	CSC inhib	UUG fidelity	HIV Env fusion	PABP FP inh	Rce1 inh	eIF4H inh	MT1-MMP act inh	MT1-MMP act inh RFP	others
O=C(NN1C(=O)C2C3C=CC(C4CC34)C2C1=O)c1ccc(Cl)cc1 (configuration not stated)	-4	-11	nt	-4	i	-1	1	-1
O=C(Nc1ccc2c(c1)OCCO2)C1CCN(c2nnnn2-c2ccccc2)CC1	-2	0	8	-11	nt	-3	-2	2
Cc1cc(/C=N/NC(=O)c2cccs2)c(C)n1-c1cnccn1	-11	-10	-13	-3	i	-12	2	5
N#CC1(NC(=O)COc2ccc3ccc(=O)oc3c2)CCCCC1	2	nt	nt	nt	i	nt	-1	4
C/C(=C/c1ccccc1)C(=O)N1CC(C)OC(C)C1 (configuration not stated)	-2	nt	-3	-5	i	-8	-1	4
O=C(Cn1cc(C(=S)N2CCOCC2)c2ccccc21)N1CCOCC1	-6	-31	nt	-13	nt	-14	1	-1
S=C(Nc1ccccc1Cl)N(CCCN1CCOCC1)Cc1ccccn1	-1	-10	-7	7	i	-3	0	-3
C[C@@H]1Cc2c(O)c(O)cc(O)c2C(=O)O1	-16	-15	nt	29	i	55	-2	-4	eIF4H inh retest=31;PABP FP inh retest=18
CCOC(=O)C1=C(c2ccccc2)NC(=O)NC1c1cc(Br)c(O)c(OC)c1 (configuration not stated)	-3	-4	0	7	i	-2	-4	-4
COc1ccccc1C(=O)NCC(=O)N/N=C/c1ccc([N+](=O)[O-])cc1	10	nt	-5	-13	i	4	3	0

(list continues)
SMILES	CSC inhib	UUG fidelity	HIV Env fusion	PABP FP inh	Rce1 inh	eIF4H inh	MT1-MMP act inh	MT1-MMP act inh RFP	others
CCOc1ccc(NC(=O)[C@@H](NC(=O)OCc2ccccc2)[C@@H](C)CC)cc1	-1	nt	-4	5	i	-6	-2	2
COc1ccc(NC(C)=O)cc1NC(=O)CCn1c(=O)sc2ccccc21	-3	-16	nt	-7	i	-17	11	4
COc1ccc(Br)cc1CN1C(=O)NC2(CCCCCC2)C1=O	-11	-17	0	10	i	6	2	0
Cn1c(=O)c2c(nc(N3CCOCC3)n2CCCNC2=NCCC2)n(C)c1=O	-14	-25	nt	-7	i	-6	2	1
C=CCc1cc(Cl)ccc1OCCOCCNCCOC	27	-10	nt	-5	i	-5	-1	3
CN1CCN(C(=O)CSc2nc(-c3ccncc3)ccc2C#N)CC1	13	-5	nt	0	i	-3	-4	2
Cc1cc(C)n2nc(C(=O)OCC(=O)N(C)Cc3ccccc3)nc2n1	-10	-6	5	nt	i	nt	1	5
CCOC(=O)c1sc2nc(CSc3ccccc3)nc(NCCN(C)C)c2c1C	9	nt	4	-6	i	-2	-6	-8
N#Cc1nc(Cc2ccccc2)oc1NCCc1ccccc1	-5	3	nt	4	i	11	1	-1
COCCn1c(C(C)C)nc2oc3ccccc3c(=O)c2c1=O	12	-1	-100	-5	i	-9	2	3
Cc1ccc2nc(NC(=O)C3CCN(S(=O)(=O)c4cccc5nsnc45)CC3)sc2c1	22	nt	nt	7	i	-9	-3	-19
N#Cc1cnc2nc(SCc3ccccc3)nn2c1	-10	-3	-28	4	i	-4	-2	1
CCOc1ccc(CN2CCSCC2)cc1	-2	1	10	5	i	12	-2	2
Cc1ccc(C=Nc2ccccc2C(N)=O)cc1	-8	0	-331	-1	i	12	-4	-11
Cc1ccc(S(=O)(=O)NCCC(=O)Nc2cccc(Cl)c2)cc1	nt	-12	nt	-6	i	-7	8	3
CN(c1ccccc1)S(=O)(=O)c1ccc(C(=O)Nc2nnc(-c3ccc(F)cc3)o2)cc1	46	nt	nt	3	i	12	nt	nt
O=C(Cc1c(O)c2ccccc2[nH]c1=O)NC1CCCCCC1	-13	nt	nt	-2	i	-2	-4	5
Nc1c2c(nc3c1CCCC3)CCCC2 (tested in a mixture with another compound)	-9	-6	-45	4	i	4	-3	-3
CCn1c(=O)c(CCC(=O)N2CCOCC2)c(C)c2c(C)nn(-c3ccccc3)c21	-1	-2	nt	nt	i	nt	-6	-8
Cc1c(-c2ccnc3cc(C(=O)O)nn23)cnn1C	-14	nt	-6	0	i	18	-2	-1
CC1CCCCN1C(=O)c1cc(-c2ccc(Cl)c(Cl)c2)on1 (configuration not stated)	5	-11	-83	3	i	3	-2	-6
COc1ccc(-n2cc(-c3ccccc3)c3c(N4CCOCC4)ncnc32)cc1	102*	-11	25	4	i	-3	-30	-18
CCOc1nonc1C(=N)/C(C(C)=O)=C(\C)O	1	-11	nt	-3	i	-5	3	9
COc1cccc(S(=O)(=O)N(C)C[C@H]2OCc3cn(nn3)CCCC(=O)N([C@H](C)CO)C[C@@H]2C)c1	nt	-3&15	19	nt	nt	nt	5	7
